Rango dissoc inh: inhibitors of RanGTP-induced Rango-importin beta complex dissociation; O95149+P62826; Biochemical FRET Rango-importin beta, RanGTP-induced dissociation; Potency, µM (top dose mostly 46.1 µM), for inactives: top-dose activity change, negative = inhibition; actives 0.071% (n = 340,000); AID 540253; active means falling FRET ratio curve, often poorly fitted, with flat reads before Ran was added; inconclusive means other falling curves, or compound fluorescence or quenching; inactive means flat or rising ratio curve;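 note: potency is the fitted concentration of half-maximal effect; % of control where 0% means no effect; nearly all actives have a fitted effect of over 45% in size; -100% = wells without RanGTP and RCC1; the record marks most hits as doubtful in a second field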
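Rango (0.1 uM)–importin beta (0.25 uM) complex; RanGTP-RCC1 trigger; 45 min RT; CFP/YFP FRET read.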
miR-21 FLuc: raises the signal of a miR-21 reporter; HeLa miR-21 FLuc reporter, luciferase, 48 h; Potency, µM (titrated, usually from 38.3 µM), for the others: at the highest dose reporter change, positive = more light; 340,000 tested, under 10 active; active = well fitted rising curve with a large enough effect; inconclusive = small, poorly fitted or top-dose-only effect; inactive = no such curve, though single readings can be large or run the other way;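 note: % of control where 0% means no effect; miR-21 action dims this reporter so a rising signal means less miR-21 action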
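Compounds were titrated across several concentrations (up to approximately 40 uM) and incubated 48 hours with HeLa miR-21-FLuc reporter cells (miR-21 target sequence downstream of FLuc, endogenous miR-21). Readout was firefly luciferase luminescence after lytic detection reagent.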
GLA inh pH 4.5: blocks human alpha-galactosidase A at pH 4.5. purified enzyme, 4-MU-alpha-Gal fluorescence, pH 4.5. activity change, negative = inhibition, % at 105 µM. 230,000 tested, under 10 active. AID 1467; inconclusive = small, poorly fitted or top-dose-only inhibition, or a rising curve; inactive = flat fitted curve, though single readings scatter; no compound was filed as active;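 note: 0% = full activity with enzyme and -100% = basal without enzyme; dose as in the result columns while the protocol names 77 µM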
Rango-impB inh: inhibitors of Rango-importin beta complex formation | AID 540263 | actives 0.031% (n = 340,000) | Q14974 | Potency, µM (top dose mostly 92.2 µM), without a hit: at the highest dose inhibition of complex formation | Rango CFP/YFP FRET sensor + importin beta, 45 min; active = rising FRET ratio curve, often small or poorly fitted; inconclusive = mostly compound fluorescence or quenching in the first reads; inactive = flat curves in all reads;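 note: potency is the fitted concentration of half-maximal effect; 0% = DMSO wells and 100% = buffer wells lacking importin beta; nearly all actives have a fitted effect of over 15% in size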
Target sequence (Q14974 whole entry, looked up): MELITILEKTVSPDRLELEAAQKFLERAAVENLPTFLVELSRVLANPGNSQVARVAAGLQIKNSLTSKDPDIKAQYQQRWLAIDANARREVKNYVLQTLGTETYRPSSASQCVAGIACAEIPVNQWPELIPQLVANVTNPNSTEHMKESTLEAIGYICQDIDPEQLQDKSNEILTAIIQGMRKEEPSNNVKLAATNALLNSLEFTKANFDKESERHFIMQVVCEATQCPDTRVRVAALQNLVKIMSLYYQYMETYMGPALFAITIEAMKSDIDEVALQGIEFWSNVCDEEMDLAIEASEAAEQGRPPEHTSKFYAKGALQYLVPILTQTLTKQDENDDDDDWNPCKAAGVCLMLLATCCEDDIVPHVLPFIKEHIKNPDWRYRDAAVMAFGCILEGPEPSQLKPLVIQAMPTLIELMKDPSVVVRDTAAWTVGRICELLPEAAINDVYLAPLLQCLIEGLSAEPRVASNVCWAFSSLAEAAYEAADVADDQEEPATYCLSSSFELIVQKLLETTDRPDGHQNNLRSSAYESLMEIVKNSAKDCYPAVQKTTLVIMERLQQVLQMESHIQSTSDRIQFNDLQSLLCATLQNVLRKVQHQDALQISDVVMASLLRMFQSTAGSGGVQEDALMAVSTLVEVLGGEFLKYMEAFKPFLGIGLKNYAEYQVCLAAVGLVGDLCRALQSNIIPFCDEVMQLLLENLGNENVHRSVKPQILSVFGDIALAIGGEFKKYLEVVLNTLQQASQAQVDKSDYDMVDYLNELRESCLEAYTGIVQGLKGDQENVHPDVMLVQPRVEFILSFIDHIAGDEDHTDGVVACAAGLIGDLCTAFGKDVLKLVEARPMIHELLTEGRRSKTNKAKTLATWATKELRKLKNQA
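Inhibition scored from the CFP 486 nm/YFP 530 nm FRET ratio 45 min after adding 0.125 microM importin beta to 50 nM Rango biosensor preincubated 5 min with compound (room temperature, PBS with DTT, Tween-20, BSA). No-importin wells as positive control.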
Active calls of the source: *; ? = inconclusive; · = not tested or not shown; & = joins results of further samples; [ ] = another dose, or the depositor's remark. An excerpt. The share of hits here may be higher or lower than overall.

GLA inh pH 4.5,miR-21 FLuc,Rango dissoc inh,Rango-impB inh,structure
·,·,-1%,-2.7%,CC(=O)N/C(=C\c1ccccc1)C(=O)OCC(=O)c1c(N)n(CC(C)C)c(=O)n(C)c1=O
11,-34%,16%,-2.9%,CCOC(=O)c1nn(-c2cccc(C)c2)c2nnc(Cc3ccc(C)cc3)c(=O)n12
-30,1%,19%,1.4%,CCc1cc(-c2n[nH]c(C)c2-c2nc(C)cs2)c(O)cc1OC
·,1%,-5%,0.3%,COC(=O)c1ccc(NC(=O)CSc2nc(N)c(NC(=O)c3ccc(Br)o3)c(=O)[nH]2)cc1
-1,1%,·,·,C[N+](C)(C)C(Cc1c[nH]c2ccccc12)C(=O)[O-] (stereo not drawn)
-1,-7%,-11%,-0.5%,COC(=O)c1cc(OC)c(OCc2cc(C(=O)OC)oc2C)c(OC)c1
2,-1%,0%,4.8%,CCOc1cc(C2NC(=O)NC(C)=C2C(=O)NCc2ccccc2)c(Cl)cc1O (stereo not drawn)
·,·,?,0.7%,Cc1noc(C)c1COc1ccccc1C(=O)NC(C)CCc1ccccc1 (stereo not drawn)
-6,-2%,-8%,-0.8%,C(=N\n1cnnc1)/c1cccnc1
1,2%,0%,-0.4%,COc1ccc(NC(=O)COC(=O)Cc2ccc(Br)cc2)cc1
6,0%,0%,-1.9%,CCN(CC)C(=O)C(=O)c1cccn1-c1ccc(C#N)cc1
8,16%,-1%,4.9%,COc1ccc(CCN=c2c([N+](=O)[O-])nn(-c3cccc(C)c3)n2O)cc1OC
·,·,-2%,-2.7%,Oc1ccccc1C=NCCN1CCN(CCN=Cc2ccccc2O)C1c1ccccc1O (stereo not drawn)
0,-19%,-25%,4.0%,c1ccc(CSc2nnc3c(n2)OC(c2ccco2)Nc2ccccc2-3)cc1 (stereo not drawn)
·,·,-10%,-4.8%,CN(CC(=O)Nc1cccc(F)c1)C(=O)c1cn2ccccc2n1
-3,-18%,3%,?,C#CCOCCOCCOCCNc1nc(N2CCN(C(=O)[C@H](CCCCN)n3cc(CCCC)nn3)CC2)nc(N2CCN(C(=O)[C@H](Cc3ccc(O)cc3)n3cc(CCO)nn3)CC2)n1
10,-40%,1%,-1.2%,Cc1ccc(C(=O)CN2C(=O)C(C)Oc3ccccc32)cc1 (stereo not drawn)
-9,-23%,-13%,0.5%,COC(=O)C(Cc1c[nH]c2ccccc12)NC(=O)c1cc(-c2ccc(OC)c(OC)c2)oc1C (stereo not drawn)
·,-5%,-8%,-0.1%,CN(C)N=Nc1ccc(S(=O)(=O)NC(Cc2ccccc2)C(=O)O)cc1 (stereo not drawn)
-11,-1%,-1%,-4.3%,O=C(OC1CCN(c2ncc(C(F)(F)F)cc2Cl)CC1)c1ccc(Cl)cc1

Quoted at random: 5 entries already listed, in no set order.
GLA inh pH 4.5,miR-21 FLuc,Rango dissoc inh,Rango-impB inh,structure
·,·,-1%,-2.7%,CC(=O)N/C(=C\c1ccccc1)C(=O)OCC(=O)c1c(N)n(CC(C)C)c(=O)n(C)c1=O
6,0%,0%,-1.9%,CCN(CC)C(=O)C(=O)c1cccn1-c1ccc(C#N)cc1
-9,-23%,-13%,0.5%,COC(=O)C(Cc1c[nH]c2ccccc12)NC(=O)c1cc(-c2ccc(OC)c(OC)c2)oc1C (stereo not drawn)
·,·,-2%,-2.7%,Oc1ccccc1C=NCCN1CCN(CCN=Cc2ccccc2O)C1c1ccccc1O (stereo not drawn)
-11,-1%,-1%,-4.3%,O=C(OC1CCN(c2ncc(C(F)(F)F)cc2Cl)CC1)c1ccc(Cl)cc1

Other records
GLA inh pH 4.5,miR-21 FLuc,Rango dissoc inh,Rango-impB inh,structure
-4,-5%,4%,3.8%,Cc1sc(N)nc1C12CC3CC(CC(C3)C1)C2
-18,-7%,1%,-0.7%,CCOC(=O)C1=C(C)NC2=C(C(=O)c3ccccc32)C1c1ccc(O)cc1 (stereo not drawn)
-5,-4%,-9%,-5.4%,CSCC[C@H](NC(=O)Nc1ccc(OC(F)(F)F)cc1)C(=O)O
8,-3%,-4%,4.0%,Cc1ccccc1NC(=O)C(NC1CCCCC1)C(C)C (stereo not drawn)
·,3%,-3%,4.6%,COc1ccc(OC)c(NC(=O)CSc2nnc(CNC(=O)c3ccccc3F)o2)c1
6,-9%,2%,-0.7%,Cc1cc(NC(=O)c2cccc([N+](=O)[O-])c2)n(-c2ccccc2)n1
·,-46%,39%,0.8%,O=C(Cc1cccs1)NCc1ccc(Cl)cc1Cl
2[21.1 µM],4%&6%,22%,0.3%,COc1cccc(-n2c(=O)c3c(C)c(C(=O)N(C)C)sc3n(CC(=O)NCCc3ccc(OC)c(OC)c3)c2=O)c1
3,0%,-12%,-2.7%,CC(Sc1nncs1)C(=O)NCc1ccc2c(c1)OCO2 (stereo not drawn)
·,-3%,22%,-4.4%,COCCNC(=O)CN1C(=O)COc2ccc(S(=O)(=O)N3CC(C)CC(C)C3)cc21 (stereo not drawn)
6,-7%,10%,2.2%,O=C(NCc1n[nH]c(=S)n1-c1ccc(Cl)c(Cl)c1)c1ccc(S(=O)(=O)N2CCOCC2)cc1
-2,-9%,0%,-0.4%,Cc1nn(C)cc1CNC(=O)c1cccc(Cl)c1
-15,-7%,-14%,-1.2%,COc1ccc(NC(=S)N(CCCN2CCCC2)Cc2ccco2)cc1
·,·,11%,0.5%,Cc1cccc(NC(=O)c2ccccc2SCc2ccc(F)cc2)n1
-4,-5%,-6%,-0.1%,CCOc1ccccc1N1CCN(C(=O)c2cc(C)oc2C)CC1
4,0%,-14%,-1.0%,O=S(=O)(c1ccccc1)N1CCC2(CC1)OCCO2
7,0%,-4%,0.9%,CCCCC(C)n1[nH]c(=O)cc1N (stereo not drawn)
-4,6%,5%,?,N=C1C(c2nc3ccccc3[nH]2)=C(O)CN1NC(=O)c1c[nH]c2ccccc12
·,-19%,10%,-1.7%,COC(=O)c1ccc(COC(=O)c2cccnc2Cl)cc1
3,-16%,22%,-3.4%,Cc1ccc(Sc2nc3c(c(=O)[nH]c(=O)n3C)n2CCc2ccccc2)cc1

Among those listed so far, two contain bromine:
GLA inh pH 4.5,miR-21 FLuc,Rango dissoc inh,Rango-impB inh,structure
·,1%,-5%,0.3%,COC(=O)c1ccc(NC(=O)CSc2nc(N)c(NC(=O)c3ccc(Br)o3)c(=O)[nH]2)cc1
1,2%,0%,-0.4%,COc1ccc(NC(=O)COC(=O)Cc2ccc(Br)cc2)cc1

More compounds.
GLA inh pH 4.5,miR-21 FLuc,Rango dissoc inh,Rango-impB inh,structure
1,0%,5%,1.4%,Cc1ccccc1OC1=NS(=O)(=O)c2ccccc21
·,-9%,0%,-0.5%,CCC(C(=O)N1CCN(Cc2ccc3c(c2)OCO3)CC1)n1c(=O)[nH]c2ccccc2c1=O (stereo not drawn)
-5,-11%,18%,1.4%,CCOC(=O)c1c(C)c(C(=O)NCc2cccs2)c(C)n1CC
1,-2%,-2%,0.2%,CN(CC(=O)Nc1ccccc1N1CCOCC1)S(=O)(=O)c1ccc(Cl)cc1
3,-27%,-12%,-7.4%,Cc1ccccc1Nc1ncc(C#N)c(N)n1
·,-11%,7%,1.6%,S=c1[nH]nc(C2CCCCC2)n1/N=C/c1ccccc1Cl
·,-29%,5%,1.5%,O=C(Nc1cccc(OC(=O)c2ccc(Br)o2)c1)c1ccccc1
·,·,?,-5.4%,COc1ccc(N(CC(=O)NCc2cccnc2)S(=O)(=O)c2ccccc2)c(OC)c1
·,·,-12%,3.8%,O=C(NNC(=O)c1cc(-c2ccc(Cl)cc2)nc2ccccc12)c1csc(N2CCOCC2)n1
6,-11%,9%,4.3%,Cc1nc([N+](=O)[O-])c(C(=O)OCc2ccccc2Br)n1C
·,·,0%,-1.0%,CC(C)Oc1ccc(/C=C(\C#N)C(=O)NC2CC2)cc1
·,-5%,0%,1.9%,Cc1ccc(NC2CCCN(C(=O)c3ccc(C)c(N4CCNC4=O)c3)C2)cc1C (stereo not drawn)
-4,-26%,17%,-0.6%,COCCN(C(=O)C(C)C)c1nnc(-c2cccc(C)c2)s1
2[21.1 µM],0%,14%,3.4%,CCOC(=O)CC(NC(=O)CCc1c(C)nc2nc(C)nn2c1C)c1ccc(C)cc1 (stereo not drawn)
-5,-29%,10%,3.1%,Cc1ccc(-n2nc3ccc(NC(=O)c4cccc([N+](=O)[O-])c4C)cc3n2)cc1
10,-1%,11%,-2.7%,Fc1ccc(NC(=S)NCc2cccnc2)cc1
·,1%,3%,0.0%,CCOC(=O)[C@@H]1[C@H]2COc3ccccc3[C@@H]2N2C(=O)N(c3ccc(Cl)cc3)C(=O)[C@]12C
1,-3%,1%,2.7%,CCN(CC)c1ncccc1C(=O)NCc1cccs1
3,23%,-18%,-6.3%,O=C1NC(Cc2c[nH]c3ccccc23)C(=O)N1Cc1ccc(CN2C(=O)NC(Cc3c[nH]c4ccccc34)C2=O)cc1 (stereo not drawn)
·,-4%,1%,-1.4%,COc1ccc(CCCC(=O)Nc2cc(C)ccc2OC)cc1
-8,0%,-2%,-0.6%,CCOC(=O)c1c(-c2ccc(C)o2)csc1NC(=O)CSc1ncn[nH]1
·,·,11%,0.6%,COc1cc(/C=C/C(=O)OCC(=O)NCCc2ccc(S(N)(=O)=O)cc2)ccc1OCC#N
·,·,1%,-0.4%,O=C(NN=Cc1ccc([N+](=O)[O-])cc1)C1CC1
6,-3%,-11%,13%,COC(=O)c1cc(NC(=O)CN2CCOCC2)cc(C(=O)OC)c1
·,·,-3%,0.1%,O=C(COC(=O)c1ccc2ncsc2c1)Nc1cc(Cl)ccc1F
·,-16%,2%,-3.7%,COc1cccc(/C=C/c2ccc3cccc(O)c3n2)c1
·,-10%,-9%,3.8%,CCOc1ccccc1NC(=O)N1CCc2ccccc2C1
6,-29%,14%,2.8%,CC(=O)Nc1cccc(NC(=O)c2ccc(C)c([N+](=O)[O-])c2)c1
0,0%,-17%,1.0%,COc1cccc(-c2nnc(-c3ccccc3NC(=O)c3ccc(C(C)(C)C)cc3)o2)c1
·,·,4%,-0.2%,CC1CCN(C(=O)COC(=O)c2cccs2)CC1
6[21.1 µM],0%,2%,-1.1%,C/C(=N\NC(=O)c1cc(C)[nH]n1)c1cccs1
-5,-10%,-12%,?,Cc1c(C(=O)/C=C/N(C)C)nnn1-c1ccc(Cl)cc1C#N
-8,13%,2%,1.5%,COc1ccc(CN2CCCC(C(=O)c3cccc(C(F)(F)F)c3)C2)cc1O (stereo not drawn)
-2,1%,?,?,COc1cccc(C(=O)NCc2ccc3c(c2)cc(C)n3C)c1
2,2%,2%,3.6%,O=C(O)CSc1nnc(-c2cccs2)n1-c1ccc(Cl)cc1
·,·,-7%,-0.8%,CCCCN(C(=O)c1ccc(-c2ccc(Cl)cc2)o1)c1c(N)n(CC(C)C)c(=O)[nH]c1=O
2,-2%,-2%,-0.4%,COc1ccccc1NC(=O)C1CC(=O)OC1c1ccccc1 (stereo not drawn)
-9,16%,-18%,0.0%,COC(=O)c1cc(=O)n(Cc2cccs2)c(=Nc2ccccc2)s1
-14,23%,-7%,1.4%,Cc1ccccc1-c1nc(CN2CCC(C(=O)N3CCN(c4ccccn4)CC3)CC2)c(C)o1
·,·,1%,7.5%,CC1(c2ccccc2)NC(=O)N(CC(=O)N2CC(=O)Nc3ccccc32)C1=O (stereo not drawn)
0,-48%,?,?,Cc1ccc(C#N)c(SCC(=O)Nc2nccs2)n1
·,0%,-8%,3.7%,COc1ccc(S(=O)(=O)N2CCC(C(=O)NC3CCCCC3)CC2)cc1C
2,-13%,-9%,2.3%,CCCC(=O)Nc1ccc(Cl)c(NC(=S)NC(=O)c2ccco2)c1
-4,8%,15%,-3.3%,O=C(NCc1ccccn1)c1cc(S(=O)(=O)N2CCN(c3ccccc3)CC2)ccc1Cl
7,-59%,-18%,-2.7%,Cc1scc(C(=O)N/N=C/c2ccsc2)c1C
·,-6%,0%,-0.2%,CSc1ncccc1C(=O)OCC(=O)N(CC(C)C)c1c(N)n(Cc2ccccc2)c(=O)[nH]c1=O
-12,0%,3%,1.3%,CCCOc1ccc(S(=O)(=O)N2C(=O)CC(=O)N(Cc3ccc(OCC)cc3)C2=O)cc1
-1,4%,2%,1.4%,COc1ccc(/C=C/C2=NN(Cc3ccccc3)C(=O)CC2)cc1
